MenB inh = M. tuberculosis MenB inhibitors, primary screen, biochemical, absorbance; inhibition, %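 (about 12 µg/mL by stock and volumes)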; MenB enzyme assay, absorbance read-out; some hits fall short of the stated cut; 1,4-dihydroxy-2-naphthoyl-CoA synthase (Mycobacterium tuberculosis (strain ATCC 25618 / …; 100,000 compounds, 0.43% hits;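 active means mean of two replicates above 30%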;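 further: 0% = no compound and 100% = wells with inactive enzyme; the first replicate is given; strong numbers were not always called active; inactives centre near -10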
Target sequence (P9WNP5 whole entry, looked up): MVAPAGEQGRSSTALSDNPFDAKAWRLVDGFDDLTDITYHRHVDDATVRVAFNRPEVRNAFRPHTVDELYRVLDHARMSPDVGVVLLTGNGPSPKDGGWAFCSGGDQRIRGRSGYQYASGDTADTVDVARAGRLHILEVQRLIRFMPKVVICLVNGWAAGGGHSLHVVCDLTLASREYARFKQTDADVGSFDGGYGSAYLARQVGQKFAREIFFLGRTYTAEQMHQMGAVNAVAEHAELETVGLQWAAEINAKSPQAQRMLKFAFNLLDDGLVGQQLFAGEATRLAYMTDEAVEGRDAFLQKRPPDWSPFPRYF
PV pol inh = poliovirus RdRp elongation inhibitors, primary screen, biochemical, fluorescence polarization, total intensity; poliovirus polymerase elongation; active compounds read low; % elongation, % (compound at 16.7 µg/mL); 150,000 compounds, 0.66% hits; AID 588519, 2011; in the data active means % elongation below about 90%; further: some results filed as inactive read as strong as hits
Target sequence (P03300 1749-2209 limits assumed): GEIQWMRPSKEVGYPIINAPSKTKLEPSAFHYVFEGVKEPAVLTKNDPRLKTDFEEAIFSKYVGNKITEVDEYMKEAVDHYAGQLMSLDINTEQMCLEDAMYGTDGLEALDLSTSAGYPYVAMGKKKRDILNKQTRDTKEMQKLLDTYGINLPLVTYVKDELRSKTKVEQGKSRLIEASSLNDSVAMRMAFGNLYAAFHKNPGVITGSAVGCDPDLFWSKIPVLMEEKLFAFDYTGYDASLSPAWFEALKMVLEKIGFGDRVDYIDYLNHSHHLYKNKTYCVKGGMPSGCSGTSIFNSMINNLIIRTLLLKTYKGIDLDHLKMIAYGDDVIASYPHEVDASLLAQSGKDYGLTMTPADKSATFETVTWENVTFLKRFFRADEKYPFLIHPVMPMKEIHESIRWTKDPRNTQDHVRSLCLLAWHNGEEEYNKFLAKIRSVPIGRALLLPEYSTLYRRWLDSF
MbtI inh = MbtI salicylate synthase inhibitors, primary screen, biochemical, fluorescence intensity | P9WFX0 | AID 493033, 2011 | 100,000 compounds, 0.89% hits | inhibition, %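 (about 17 µg/mL by stock and volumes)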 | purified MbtI enzyme, fluorescence intensity read-out;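 active means above 50% in both replicates, above 80% if mildly self-fluorescent; inactive means the rest, strongly fluorescent compounds included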;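 further: 0% = mean of negative and 100% = mean of positive controls; one replicate is shown; some compounds called inactive have numbers as strong as hits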
PV pol inh intensity = further read-out of PV pol inh, marked with its call; % elongation; measured here: total intensity read-out; formula for this scale not given here;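 total fluorescence in place of polarization; lower means less elongation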
* marks the source's active call; other numbers are inactive results; . = not tested or not shown. Compounds were not picked by outcome; about 1.8% have a hit in one of these screens.

structure,MenB inh,PV pol inh,PV pol inh intensity,MbtI inh
CCOC(=O)c1cccc(NS(=O)(=O)c2cc(C(=O)OCC)n(C)c2)c1,-3,101,101,2
COc1c(O)cc2c(c1OC)CC(=O)CCC2,-14,109,110,.
CCOC(=O)c1cnc2c(-c3ccc(Cl)cc3)cnn2c1C,.,99,97,-8
Cc1ccc(-c2c(C#N)c(N)n(C)c(=O)c2C#N)c(C)c1,2,104,109,.
CN(CC(=O)Nc1ccccc1Cl)Cn1nc(-c2ccco2)oc1=S,-1,96,103,49
O=C(NCc1ccco1)C(=S)NCc1ccccc1,-7,99,100,68*
ON(/C=C1\C=Nc2ccccc21)c1ccccc1,-16,101,110,17
NS(=O)(=O)c1ccc(-n2cccc2C=Nn2cnnc2)cc1,8,102,97,.
O=C(c1cc2c(s1)CCC2)N1CCN(S(=O)(=O)c2cccc(Br)c2)CC1,-20,102,101,-9
Cn1c[n+](C)cc1C(O)c1ccccc1 (configuration not stated),12,102,107,1
CCCN(CCC)S(=O)(=O)c1c(C(=O)OCC)c(C)n(C)c1C,3,102,103,-23
N#Cc1ccc(Br)cc1,3,102,104,6
NC(=O)COC(=O)c1cccc(S(=O)(=O)N2CCN(c3ccccc3)CC2)c1,-25,104,106,-16
C/C(=N\NC(N)=S)C1(C)N(O)C(C)(C)C(c2cccs2)=[N+]1[O-] (configuration not stated),-19,101,102,15
CC(CNC(=O)c1nnc(Cc2ccc(Cl)cc2)o1)c1ccccc1 (configuration not stated),-22,105,106,-10
Cc1cc(-c2ccccc2)nc(SC(C)C(=O)N(C)C)n1 (configuration not stated),-18,104,106,-4
CN(c1ccc(C(=O)Cn2nc(C(=O)O)c3ccccc3c2=O)cc1)S(C)(=O)=O,-17,102,103,-7
CCCC(C(=O)NC1CCCC1)N(C(=O)Cn1nnc(-c2ccc(C)o2)n1)c1ccccc1 (configuration not stated),-37,105,105,-26
CC(C)(C)c1cc(CCC#N)cc(C(C)(C)C)c1O,-7,105,102,-4
CNc1cc(F)nc(F)n1,-21,104,104,0

The list continues.
structure,MenB inh,PV pol inh,PV pol inh intensity,MbtI inh
O=C(NC1CCCc2ccccc21)c1ccc(S(=O)(=O)NCc2ccco2)cc1 (configuration not stated),-9,99,95,-6
COc1cc(C=Nc2ccc(Br)c(Cl)c2)ccc1O,4,109,121,.
COC(=O)CC1=C(C(=O)OC)C2(C(=O)N(C)c3ccccc32)C(C(=O)OC)=C(N)O1 (configuration not stated),9,101,102,5
CCOC(=O)c1sc(=N)n(-c2ccc(OC)cc2)c1C,-28,100,102,-26
CCc1ccc(-c2cc(C)no2)cc1S(=O)(=O)N(C)C1CCCCC1,-15,105,104,-7
CCOC(=O)c1cc(-c2ccco2)nc2c1c(C)nn2-c1ccccc1,-24,113,119,6
O=C(CN1CCCC1)c1cccc(C(F)(F)F)c1,6,96,98,3
Cc1ccc(NC2=NCCS2)cc1Cl,-21,101,98,-1
COC(=O)c1cc(OC)c(OC)cc1NC(=O)Cc1ccc(OCc2c(C)noc2C)cc1,-9,108,110,-20
S=c1nc[nH]c2c1sc1ncccc12,-2,98,96,76
Cn1c(Cn2c(=O)sc3ccccc32)nnc1SCC(=O)NCc1ccccc1Cl,-43,103,108,-4
O=C(Nc1cccc(-n2cnnn2)c1)c1ccccc1,-6,102,101,6
Cc1cc(C(=O)OCC(=O)N(C)Cc2ccccc2)c(C)o1,.,103,106,-13
CCOC(=O)C1=C(C)OC(N)=C(C(=O)OCC)C12C(=O)Nc1ccccc12 (configuration not stated),-8,104,108,.
Cn1c(SC2CCCCC2=O)nnc1-c1ccncc1 (configuration not stated),-6,100,111,-3
COc1ccc(-c2nnc(C3CCN(S(=O)(=O)c4cc(Br)cc5c4N(C(C)=O)CC5)CC3)o2)cc1,3,99,99,13
CCn1cc(NC(=O)Nc2ccccc2C(=O)OC)c(C(N)=O)n1,-2,98,103,67
O=C(NCc1ccccc1)C1CCCN1S(=O)(=O)c1ccc(Cl)cc1 (configuration not stated),-7,101,100,-8
O=c1[nH]ncc(Nc2ccc(F)cc2)c1Cl,-11,111,110,1
Cc1c(C(=O)Nc2ccccc2Cl)oc2ccc(S(=O)(=O)N3CCOCC3)cc12,-13,100,103,14

Further records follow.
structure,MenB inh,PV pol inh,PV pol inh intensity,MbtI inh
O=C(NCCCN1CCOCC1)c1cccc(S(=O)(=O)N2CCCC2)c1,-18,105,107,-9
CC1Cc2ccccc2N1S(=O)(=O)c1cccc(C(=O)NCCCn2ccnc2)c1 (configuration not stated),-26,104,107,-11
CCOC(=O)c1cc(-c2ccc(C)cc2)n(CCCC(=O)Nc2cccc(CC)c2)c1,-10,103,106,-3
COc1ccc(C)cc1-n1c(C)nc2cc(C(=O)NCC(OC)OC)ccc21,-12,100,102,-9
O=C(Nc1ccccc1)c1ccc(-c2nc3ccccc3s2)s1,-20,104,108,137
CN(C(=O)c1cccnc1Cl)C1CCS(=O)(=O)C1 (configuration not stated),.,94,83,-7
OCc1ccccc1NC(=S)NCc1ccccc1,-17,106,105,4
C=CCNC(=O)c1ccc(N2C(=O)c3ccccc3C2=O)cc1,-12,102,101,5
O=C(Cn1ncc2c(=O)oc3ccccc3c21)NCC1COc2ccccc2O1 (configuration not stated),-1,100,105,7
CCOC(=O)C1SC(c2ccccc2)C(C#N)C1(O)c1ccccc1 (configuration not stated),13,104,97,0
C[C@@H]1O[C@@H](O[C@H]2C[C@@H](O)[C@]3(CO)[C@H]4[C@H](O)C[C@]5(C)[C@@H](C6=CC(=O)OC6)CC[C@]5(O)[C@@H]4CC[C@]3(O)C2)[C@H](O)[C@H](O)[C@H]1O,-8,99,100,1
COc1ccc(CC2=C(C)C(=O)N(c3ccc(OC)cc3)C2=O)cc1,-30,99,103,-2
Cc1cccc(N2CCC(N=CN(CCO)CCO)=N2)c1,-17,104,113,-23
COc1cccc(CC(=O)N(Cc2ccccc2)Cc2ccco2)c1,-14,104,110,-7
CC(=O)Nc1ccc(SCc2nc3ccccc3c(=O)n2CC#N)cc1,-6,108,115,51
O=c1c2ccccc2[nH]c(=S)n1CCN1CCCCC1,-6,98,95,24
CCCCN(C)c1ncnc2onc(-c3ccc(Cl)cc3)c12,-17,102,102,-2
CCn1cnc2ccccc21,7,100,101,-10
CC(C)c1ccc(-c2nnn(CC(N)=O)n2)cc1,-4,101,102,-7
Cc1ccc(CN(C)CC(=O)NC(C)c2ccccc2)cc1 (configuration not stated),-13,.,.,-1

(list continues)
structure,MenB inh,PV pol inh,PV pol inh intensity,MbtI inh
CN(C)[C@@H]1C(=O)C(C(=O)NCN2CCCC2)=C(O)[C@@]2(O)C(=O)C3=C(O)c4c(O)cccc4[C@@](C)(O)C3CC12 (some centres not stated),-4,96,102,-10
O=C(c1ccccc1)c1cc(Cl)ccc1N=Cc1cccs1,.,103,107,-4
Cc1cccc(CSc2ccc(-c3ccco3)nn2)c1,-13,105,105,33
COC(=O)CCCCC1=C(NC(C)=O)C(NC(=O)c2ccccc2)CS1 (configuration not stated),-1,105,107,.
O=C(CSC1=NCCN1)Nc1cc(C(F)(F)F)ccc1Cl,.,97,98,-1
CCN(CC)C(=O)Cn1nnc(-c2ccccc2)n1,8,100,104,-5
COc1ccc(Nc2c(-c3cccc(O)c3)nc3ncccn23)cc1,-50,105,103,-6
Cc1coc(NC(=O)CSc2nc(-c3ccc4c(c3)OCO4)cc(C(F)(F)F)c2C#N)n1,4,100,100,-81
OCC1CCCN(Cc2ccc(F)cc2)C1 (configuration not stated),10,101,101,-5
CC1(C)OCC(COC(=O)/C=C/c2ccc(F)cc2)O1 (configuration not stated),-4,102,105,10
O=C(O)c1cccc(-c2ccc(/C=C3/SC(=O)N(c4ccccc4)C3=O)o2)c1,-73,104,116,.
O/N=C/c1cc[n+](C/C=C\c2ccccc2)cc1,12,105,99,4
Cc1cc(=O)[nH]c(N/N=C/C2CC=CCC2)n1 (configuration not stated),-17,101,108,113
COc1ccc(-n2nc(C)cc2N)cc1,-58,103,104,-6
O=C(C1CC(c2c(F)cccc2Cl)=NO1)N1CCCC1 (configuration not stated),2,98,95,-6
CCOP(=S)(OCC)SCSn1c(=O)oc2cc(Cl)ccc21,-27,102,95,-1
c1csc(C2SCCS2)c1,23,102,100,10
N#CC1(S(=O)(=O)c2ccc(Cl)cc2)CC1,.,106,109,-14
Cc1ccc(C(=O)N(C)CC(=O)Nc2ccc(F)c(F)c2F)o1,16,106,100,-3
CC1=CCC(C(=O)Nc2nccs2)C(C(=O)Nc2nccs2)C1 (configuration not stated),4,102,103,-9

Carrying on.
Molecule	MenB inh	PV pol inh	PV pol inh intensity	MbtI inh
NC(=O)Cn1nnc2ccccc2c1=O	3	100	101	-1
CCOc1cc(NS(=O)(=O)c2ccc(OC)cc2)c(OCC)cc1NC(=O)CC	2	100	100	-4
O=C(CCn1nc(-c2ccccc2)c2ccccc2c1=O)N1CCCCC1	-22	101	102	10
CCOC(=O)Nc1ccc2c(c1)Nc1ccccc1S2	-5	102	104	2
Cc1nc(SC(C)C(=O)NCc2ccc3c(c2)OCO3)nc(C)c1C (configuration not stated)	-15	105	101	22
CCOC(=O)c1c(NC(=O)C(C)Sc2nnc(C)s2)sc2c1CCCC2 (configuration not stated)	-20	100	95	-6
N#CC(NC(=S)Nc1cccc(Cl)c1)c1ccccc1 (configuration not stated)	-15	98	110	4
CN1C(N)=NC(=O)/C1=C/c1ccc(-c2ccc(Br)cc2)o1	4	102	103	10
CCOC(=O)c1cc(C)sc1/N=C/C1C(=O)NC(=S)NC1=O	-1	102	101	22
Cc1ccc(N2CCN(CC(N)=O)CC2C)cc1 (configuration not stated)	-31	105	102	-15
O=C(CCC1Nc2c3ccccc3nc(=S)n2C1=O)NC1CC1 (configuration not stated)	-21	102	102	12
Cc1cc2c(c(=O)n1Cc1ccccc1)C(c1ccncc1)C(C#N)=C(N)O2 (configuration not stated)	4	99	109	-4

Continuation.
Molecule	MenB inh	PV pol inh	PV pol inh intensity	MbtI inh
c1cnc2cc(CNCc3ccc4c(c3)OCO4)ccc2n1	8	100	106	-8
CC1(C)CSC(Nc2cccc(C(F)(F)F)c2)=N1	.	103	106	-1
Cc1nnc(SC(C)C(=O)N2CCc3ccccc3C2)n(N)c1=O (configuration not stated)	-8	104	107	-7
CC12CCC(O)CC1CCC1[C@@H]2CC(O)C2(C)C(C3=CC(=O)OC3)CCC12O (some centres not stated)	-7	101	102	-7
O=C(c1cccs1)n1cnc2ccccc21	5	104	103	-20
COc1ccc(NS(=O)(=O)c2ccc3oc(=O)ccc3c2)cc1	-25	104	102	-6
CNc1cc(=O)n(C)c(=O)[nH]1	-33	101	105	-6
Cc1cc(C)cc(NC(=O)NCc2c(-c3ccccc3)noc2C)c1	4	101	104	-7
CC(C)(C)C(=O)Nc1ccc(NC(=O)c2ccco2)cc1	3	100	107	.
COc1ccc2c(c1)cc(C(=O)O)n2C	13	101	101	89
Cc1cc(C)cc(C(=O)Nc2ccc(N3CCN(S(C)(=O)=O)CC3)cc2)c1	-32	103	105	5
C=CCn1c(CC(C)C)nnc1SCC(=O)Nc1ccc(Cl)cc1	-13	105	103	-16

The listing continues.
Molecule	MenB inh	PV pol inh	PV pol inh intensity	MbtI inh
OC(CNCc1ccc(Cl)cc1Cl)Cn1c(-c2ccc(F)cc2)cc2ccccc21 (configuration not stated)	-30	101	106	83
Cc1cc(C(=O)COc2ccc(C#N)cc2)c(C)n1CC1CCCO1 (configuration not stated)	-11	101	104	4
Cc1cc(C)nc(N2Cc3ccccc3C2=NC(=O)c2ccc3c(c2)OCCO3)n1	-4	104	107	-6
O=C(NCC(=O)N1CCN(c2ccccc2)CC1)c1ccc(Br)cc1	-24	102	102	-23
Cc1ccc(C2=Nc3ccccc3N(CC(=O)Nc3ccc4c(c3)OCO4)C(=O)C2)cc1	-14	101	102	-26
CC12CCC(=O)N1C(C(=O)OCC(=O)c1ccc(Cl)s1)CS2 (configuration not stated)	-14	103	103	-8

Assay outcomes (PubChem)
